High-throughput results: PubChem, Broad Institute
FGF22 binding = shifts melting point of recombinant human FGF22; recombinant FGF22 thermal shift, SYPRO orange fluorescence; percent of sucrose octasulfate shift, DMSO zero; 340,000 compounds, 1.5% hits; calls only at 9.99 µM; Q9HCT0;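 active = melting point raised past a set limit in the mean and every replicate; three in four hits are not shown here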
Target sequence (Q9HCT0 whole entry, looked up): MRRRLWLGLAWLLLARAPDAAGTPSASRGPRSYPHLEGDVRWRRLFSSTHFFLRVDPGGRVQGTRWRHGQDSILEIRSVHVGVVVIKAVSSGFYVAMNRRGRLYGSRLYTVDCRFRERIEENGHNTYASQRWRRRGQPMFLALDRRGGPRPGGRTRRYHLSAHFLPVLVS
rRNA inh HTS = inhibits bacterial ribosomal RNA function over humanized ribosomes | E. coli WT GFP vs humanized-ribosome RFP mutants, fluorescence, 24 h; hits give low values; DMSO median 0, no signal -100 | GFP signal change (wild-type ribosome), % (test concentration not listed) | 350,000 compounds, 1.6% hits | AID 720706;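 active = significant combined selectivity score with lowered wild-type GFP, culture density cut under 30%, mutant RFP and density less affected; inactive = any of these conditions unmet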; also: one replicate is shown; some compounds called inactive have numbers as strong as hits
AF4-AF9 inh = MLL-AF4/AF9 protein interaction inhibition. P42568. AlphaScreen, biotin-AF4 peptide binding to FLAG-AF9. inhibition, % at 10 µM. 350,000 compounds, 0.47% hits;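 active = every replicate reaching a set inhibition limit, whatever the replicate mean, cut at about 25% in these data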;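 also: 0% = plate neutral control median and 100% = total signal loss; the record names both 10 and 1 µM as test concentration; the first replicate is given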
Target sequence (P42568 whole entry, looked up): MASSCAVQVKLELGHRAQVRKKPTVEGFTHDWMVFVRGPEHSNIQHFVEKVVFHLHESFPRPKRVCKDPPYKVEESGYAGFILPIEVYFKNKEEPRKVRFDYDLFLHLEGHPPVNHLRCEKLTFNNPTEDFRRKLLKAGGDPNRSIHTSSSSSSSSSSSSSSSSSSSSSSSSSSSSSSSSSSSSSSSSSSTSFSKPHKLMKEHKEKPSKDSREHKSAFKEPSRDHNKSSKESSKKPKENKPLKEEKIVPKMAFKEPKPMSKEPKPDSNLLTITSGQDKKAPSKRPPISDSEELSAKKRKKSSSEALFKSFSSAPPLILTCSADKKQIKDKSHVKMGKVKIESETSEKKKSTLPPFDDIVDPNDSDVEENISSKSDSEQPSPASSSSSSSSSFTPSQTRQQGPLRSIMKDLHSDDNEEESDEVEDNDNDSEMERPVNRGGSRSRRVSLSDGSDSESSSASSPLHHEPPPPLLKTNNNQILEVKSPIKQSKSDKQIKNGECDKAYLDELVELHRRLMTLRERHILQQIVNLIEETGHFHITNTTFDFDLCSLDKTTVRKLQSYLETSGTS
rRNA inh HTS OD600 = also measured in rRNA inh HTS; calls as there; OD600 change, %; measured here: OD600 growth;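 optical density of the mix in the first replicate; 0 = DMSO median and -100 = no signal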
rRNA inh HTS RFP = further read-out of rRNA inh HTS, marked with its call; RFP signal change, %; measured here: RFP humanized mutant strains;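 first replicate; 0 = DMSO median and -100 = no signal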
The depositor's hits bear a star; & = joins results of further samples.

For C[C@H](CO)N1C[C@H](C)[C@@H](CN(C)S(=O)(=O)c2cccs2)OCc2cn(nn2)CCCC1=O the results were FGF22 binding inactive, rRNA inh HTS -2&3, AF4-AF9 inh -0.8&0.0, rRNA inh HTS OD600 0&1 and rRNA inh HTS RFP -0.5&-0.3.
Cc1noc(C)c1NC(=O)Nc1ccc2c(c1)CC(=O)N([C@@H](C)CO)C[C@@H](C)[C@H](CN(C)CC1CC1)O2 was read as FGF22 binding inactive, rRNA inh HTS 3, AF4-AF9 inh -2.9, rRNA inh HTS OD600 17 and rRNA inh HTS RFP 0.1.
`CC(C)N1CCN(c2ccncc2S(=O)(=O)N2CCCCC2)CC1` gave FGF22 binding inactive, rRNA inh HTS 16, AF4-AF9 inh -1.8, rRNA inh HTS OD600 7 and rRNA inh HTS RFP 4.4.
For CCOc1ccc(CCN2C(=S)N([C@@H](Cc3ccccc3)CN3CCCC3CN3C(=S)NC[C@@H]3Cc3ccccc3)C[C@@H]2Cc2ccc(O)cc2)cc1 (some centres undefined) the results were FGF22 binding inactive, rRNA inh HTS 11, AF4-AF9 inh 5.0, rRNA inh HTS OD600 4 and rRNA inh HTS RFP 26.
Screening C[C@@H]1CN([C@@H](C)CO)C(=O)Cc2cc(NS(=O)(=O)c3cccs3)ccc2O[C@@H]1CN(C)CC1CC1 returned FGF22 binding inactive, rRNA inh HTS 1, AF4-AF9 inh -1.2, rRNA inh HTS OD600 3 and rRNA inh HTS RFP -0.2.
For C[C@H](CO)N1C[C@H](C)[C@H](CN(C)S(=O)(=O)c2ccc(F)cc2)Oc2ccc(NS(=O)(=O)c3cn(C)cn3)cc2CC1=O the results were FGF22 binding inactive, rRNA inh HTS 1, AF4-AF9 inh -2.8, rRNA inh HTS OD600 5 and rRNA inh HTS RFP -0.5.
COc1ccc(C#Cc2cccc(-c3nc(C(=O)Nc4ccc(-c5ccccc5)cc4)cc4c3[C@@H](CCO)N(S(=O)C(C)(C)C)C4)c2)cc1OC (some centres undefined) was read as FGF22 binding inactive, rRNA inh HTS 5, AF4-AF9 inh -3.3, rRNA inh HTS OD600 20 and rRNA inh HTS RFP 5.1.
CCOc1ncccc1C(=O)Nc1cc(S(=O)(=O)N2CCCCC2)ccc1OC was read as FGF22 binding inactive, rRNA inh HTS 16, AF4-AF9 inh -2.2, rRNA inh HTS OD600 8 and rRNA inh HTS RFP 2.8.
For CCCNC(=O)N(C)C[C@H]1Oc2cc(C#CC3CC3)ccc2S(=O)(=O)N([C@H](C)CO)C[C@H]1C the results were FGF22 binding inactive, rRNA inh HTS -4, AF4-AF9 inh -0.3, rRNA inh HTS OD600 -19 and rRNA inh HTS RFP 2.1.
CS(=O)(=O)Nc1ccc2c(c1)[C@H]1C[C@@H](CC(=O)N3CCOCC3)O[C@@H](CO)[C@H]1O2 was read as FGF22 binding inactive, rRNA inh HTS 1, AF4-AF9 inh -14, rRNA inh HTS OD600 0 and rRNA inh HTS RFP -2.5.
Screening COCCNc1nc(NCCOc2ccccc2)c2sc(-c3ccccc3)cc2n1 returned FGF22 binding inactive, rRNA inh HTS -33, AF4-AF9 inh 1.3, rRNA inh HTS OD600 -59 and rRNA inh HTS RFP 1.0.
Screening Cc1ccc(Cc2c(-c3cccc(Cl)c3)nc3ccc(C)cn23)cc1 returned FGF22 binding inactive, rRNA inh HTS -28, AF4-AF9 inh -17, rRNA inh HTS OD600 -32 and rRNA inh HTS RFP -2.3.
Screening C[C@@H]1CCCCO[C@@H](CN(C)Cc2ccccc2)[C@H](C)CN([C@@H](C)CO)C(=O)c2cc(NC(=O)Nc3ccc(F)cc3)ccc2O1 returned FGF22 binding inactive, rRNA inh HTS 1, AF4-AF9 inh 8.7, rRNA inh HTS OD600 -11 and rRNA inh HTS RFP 13.
Screening CC(C)NC(=O)N(C)C[C@@H]1Oc2c(NC(=O)c3cnccn3)cccc2C(=O)N([C@H](C)CO)C[C@@H]1C returned FGF22 binding inactive, rRNA inh HTS 6, AF4-AF9 inh -1.9, rRNA inh HTS OD600 14 and rRNA inh HTS RFP 0.4.
`CCCN(C)C1CN(Cc2cn(Cc3ccc(C)cc3)nn2)S(=O)(=O)C1` (centres undefined) gave FGF22 binding inactive, rRNA inh HTS 8, AF4-AF9 inh 0.3, rRNA inh HTS OD600 11 and rRNA inh HTS RFP -4.4.
Cc1ccc(S(=O)(=O)Nc2ccc3c(c2)C(=O)N([C@H](C)CO)C[C@H](C)[C@@H](CN(C)S(C)(=O)=O)OCCCC[C@@H](C)O3)cc1 was read as FGF22 binding inactive, rRNA inh HTS 3, AF4-AF9 inh 5.5, rRNA inh HTS OD600 1 and rRNA inh HTS RFP -0.1.
`CCOC(=O)[C@]12CCCC=C1N(Cc1ccc3c(c1)OCO3)C(=O)[C@H](CC(=O)NCc1cccc(C(F)(F)F)c1)C2` gave FGF22 binding inactive, rRNA inh HTS 7, AF4-AF9 inh -2.9, rRNA inh HTS OD600 17 and rRNA inh HTS RFP 3.5.
Screening C[C@@H]1CN([C@@H](C)CO)C(=O)c2cc(NC(=O)C3CCCCC3)ccc2O[C@@H](C)CCCCO[C@H]1CN(C)Cc1ccncc1 returned FGF22 binding inactive, rRNA inh HTS -4, AF4-AF9 inh 5.9, rRNA inh HTS OD600 4 and rRNA inh HTS RFP -1.0.
`O=C(N[C@@H]1CC[C@@H](CCNS(=O)(=O)c2ccc(Cl)cc2)O[C@@H]1CO)c1cnccn1` gave FGF22 binding inactive, rRNA inh HTS 2, AF4-AF9 inh -0.9, rRNA inh HTS OD600 3 and rRNA inh HTS RFP -2.5.
Screening C[C@H]1CCCCO[C@H](CN(C)Cc2ccc3c(c2)OCO3)[C@@H](C)CN([C@@H](C)CO)C(=O)c2cc(NC(=O)NC3CCCCC3)ccc2O1 returned FGF22 binding inactive, rRNA inh HTS 3, AF4-AF9 inh 4.0, rRNA inh HTS OD600 -6 and rRNA inh HTS RFP 0.8.
Screening C[C@H]1CN([C@@H](C)CO)C(=O)CCCn2nncc2CO[C@@H]1CN(C)Cc1ccc2c(c1)OCCN2C returned FGF22 binding inactive, rRNA inh HTS -2, AF4-AF9 inh 1.9, rRNA inh HTS OD600 1 and rRNA inh HTS RFP 1.0.
CC(C)NC(=O)N1CCCCN2[C@@H](CO)[C@@H](c3ccc(C#CC4CC4)cc3)[C@@H]2C1 was read as FGF22 binding inactive, rRNA inh HTS 7, AF4-AF9 inh 3.5, rRNA inh HTS OD600 5 and rRNA inh HTS RFP 4.1.
For C[C@H]1CN([C@@H](C)CO)C(=O)Cc2cc(NS(=O)(=O)c3ccc(Cl)cc3)ccc2O[C@@H]1CN(C)Cc1ccc(Oc2ccccc2)cc1 the results were FGF22 binding inactive, rRNA inh HTS 0, AF4-AF9 inh 1.8, rRNA inh HTS OD600 13 and rRNA inh HTS RFP 7.6.
Screening C[C@H](CO)N1C[C@H](C)[C@H](CN(C)Cc2ccc(C(F)(F)F)cc2)OCCCC[C@H](C)Oc2ccc(NC(=O)Nc3ccc4c(c3)OCO4)cc2C1=O returned FGF22 binding inactive, rRNA inh HTS -1, AF4-AF9 inh 3.9, rRNA inh HTS OD600 8 and rRNA inh HTS RFP 0.8.
`COc1ccc2c3c(n(C)c2c1)[C@H](CO)N(Cc1ccccc1)CC31CN(C(=O)c2ccccc2F)C1` gave FGF22 binding inactive, rRNA inh HTS -12, AF4-AF9 inh 8.7, rRNA inh HTS OD600 -27 and rRNA inh HTS RFP -0.6.
COc1cccc(C(O)c2ncc(-c3ccc4ccccc4c3)[nH]2)c1 (centres undefined) was read as FGF22 binding inactive, rRNA inh HTS -14, AF4-AF9 inh -0.3, rRNA inh HTS OD600 -45 and rRNA inh HTS RFP 3.3.
Screening C[C@H]1CN([C@@H](C)CO)C(=O)c2cc(C#CCc3ccccc3)cnc2O[C@H]1CN(C)C(=O)C1CCCCC1 returned FGF22 binding inactive, rRNA inh HTS -3, AF4-AF9 inh -1.0, rRNA inh HTS OD600 -6 and rRNA inh HTS RFP -3.0.
`COc1ccccc1CNC(=O)C[C@H]1CC[C@H]2[C@H](COc3ccc(NS(=O)(=O)c4ccc(C)cc4)cc3C(=O)N2C)O1` gave FGF22 binding inactive, rRNA inh HTS 0, AF4-AF9 inh -15, rRNA inh HTS OD600 -8 and rRNA inh HTS RFP 4.5.
For CC1(C)CC(=O)C(c2ccccc2)(c2ccccc2)C(=O)C1 the results were FGF22 binding inactive, rRNA inh HTS -9, AF4-AF9 inh 9.0, rRNA inh HTS OD600 -18 and rRNA inh HTS RFP -4.4.
Screening C/C=C/c1ccc([C@H]2[C@@H](C#N)N(C(=O)c3cccnc3)[C@@H]2CO)cc1 returned FGF22 binding inactive, rRNA inh HTS -4, AF4-AF9 inh 1.1, rRNA inh HTS OD600 12 and rRNA inh HTS RFP -1.6.
For C[C@@H]1CN([C@H](C)CO)C(=O)c2cc(NS(=O)(=O)c3ccc(F)cc3)ccc2O[C@@H](C)CCCCO[C@H]1CN(C)CC1CCCCC1 the results were FGF22 binding inactive, rRNA inh HTS 5, AF4-AF9 inh 4.7, rRNA inh HTS OD600 12 and rRNA inh HTS RFP 2.3.
For CCCC#Cc1cnc2c(c1)C(=O)N([C@@H](C)CO)C[C@H](C)[C@@H](CN(C)C(=O)C1CCC1)O2 the results were FGF22 binding inactive, rRNA inh HTS 1, AF4-AF9 inh -0.2, rRNA inh HTS OD600 -3 and rRNA inh HTS RFP -1.5.
For C[C@H]1CCCCO[C@@H](CN(C)S(=O)(=O)c2cn(C)cn2)[C@@H](C)CN([C@@H](C)CO)C(=O)c2cc(NS(=O)(=O)c3cccs3)ccc2O1 the results were FGF22 binding inactive, rRNA inh HTS 0, AF4-AF9 inh 0.4, rRNA inh HTS OD600 -3 and rRNA inh HTS RFP -4.8.
`CCCC#Cc1ccc2c(c1)O[C@H](CN(C)S(=O)(=O)c1cccc(F)c1)[C@H](C)CN([C@@H](C)CO)S2(=O)=O` gave FGF22 binding inactive, rRNA inh HTS 2, AF4-AF9 inh -1.7, rRNA inh HTS OD600 3 and rRNA inh HTS RFP 0.5.
CCCNC(=O)C1(C)CCN(C(=O)c2cc(F)cc(F)c2)C1 (centres undefined) was read as FGF22 binding inactive, rRNA inh HTS 3, AF4-AF9 inh 0.1, rRNA inh HTS OD600 8 and rRNA inh HTS RFP 3.0.
For COC(=O)[C@H]1[C@H](CO)[C@H]2Cn3c(ccc(C4=CCCCC4)c3=O)[C@H]2N1CCC(F)(F)F the results were FGF22 binding inactive, rRNA inh HTS 2, AF4-AF9 inh -0.2, rRNA inh HTS OD600 2 and rRNA inh HTS RFP -1.8.
For O=C(c1ccc(F)cc1)N1CC(=O)N2[C@@H](CO)[C@@H](c3ccc(C#CCC4CCCC4)cc3)[C@@H]2C1 the results were FGF22 binding inactive, rRNA inh HTS -10, AF4-AF9 inh 0.4, rRNA inh HTS OD600 -30 and rRNA inh HTS RFP -3.0.
`COc1ccc(CC(N)c2csc(NC(=O)Nc3ccccc3Cc3ccccc3)n2)cc1` (centres undefined) gave FGF22 binding inactive, rRNA inh HTS -54, AF4-AF9 inh 15, rRNA inh HTS OD600 -74 and rRNA inh HTS RFP -15.

In the list so far, these have an aryl methoxy group.
COc1ccc(C#Cc2cccc(-c3nc(C(=O)Nc4ccc(-c5ccccc5)cc4)cc4c3[C@@H](CCO)N(S(=O)C(C)(C)C)C4)c2)cc1OC (some centres undefined) was read as FGF22 binding inactive, rRNA inh HTS 5, AF4-AF9 inh -3.3, rRNA inh HTS OD600 20 and rRNA inh HTS RFP 5.1.
CCOc1ncccc1C(=O)Nc1cc(S(=O)(=O)N2CCCCC2)ccc1OC was read as FGF22 binding inactive, rRNA inh HTS 16, AF4-AF9 inh -2.2, rRNA inh HTS OD600 8 and rRNA inh HTS RFP 2.8.
`COc1ccc2c3c(n(C)c2c1)[C@H](CO)N(Cc1ccccc1)CC31CN(C(=O)c2ccccc2F)C1` gave FGF22 binding inactive, rRNA inh HTS -12, AF4-AF9 inh 8.7, rRNA inh HTS OD600 -27 and rRNA inh HTS RFP -0.6.
COc1cccc(C(O)c2ncc(-c3ccc4ccccc4c3)[nH]2)c1 (centres undefined) was read as FGF22 binding inactive, rRNA inh HTS -14, AF4-AF9 inh -0.3, rRNA inh HTS OD600 -45 and rRNA inh HTS RFP 3.3.
`COc1ccccc1CNC(=O)C[C@H]1CC[C@H]2[C@H](COc3ccc(NS(=O)(=O)c4ccc(C)cc4)cc3C(=O)N2C)O1` gave FGF22 binding inactive, rRNA inh HTS 0, AF4-AF9 inh -15, rRNA inh HTS OD600 -8 and rRNA inh HTS RFP 4.5.
`COc1ccc(CC(N)c2csc(NC(=O)Nc3ccccc3Cc3ccccc3)n2)cc1` (centres undefined) gave FGF22 binding inactive, rRNA inh HTS -54, AF4-AF9 inh 15, rRNA inh HTS OD600 -74 and rRNA inh HTS RFP -15.

These rows are one share of the data, so the mix of outcomes need not match the whole.
